# Compound activity (PubChem)
# Sa ugtP lethal: growth inhibition of ugtP-null S. aureus, primary screen, RN4220 ugtP deletion, OD600; 16 h; some inactives read as strong as hits; growth inhibition, % (no concentration beside the values); hit rate 0.54% among 330,000;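 active means z-score under -3 and OD600 up to 0.15 on both plates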;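 further: plate controls were untreated wells for no effect and antibiotic for full effect; wells of about 80 µL received 100 nL stock; the first replicate is given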
# Sa RN4220 lethal: growth inhibition of S. aureus RN4220, primary screen, OD600 | 16 h | inhibition, % (test concentration not listed) | hit rate 0.33% among 330,000;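 active means z-score of -3 or lower and OD600 up to 0.18 on both plates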;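 further: plate controls were untreated cells for no effect and reference antibiotic for full effect; stock transfer was 100 nL into about 80 µL; one replicate is shown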
# PrP UTR inh: inhibition of PrP 5' UTR reporter expression | cell-based PrP 5' UTR mRNA reporter, plate reader | inhibition, % (test concentration not listed) | hit rate 0.35% among 340,000;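 active means every replicate at 50% or more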;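 further: 0 = median of the neutral control wells; tested in H4 reporter cells; numbers are from one replicate; inactives centre near -14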
# BJeLR lethal: MLPCN primary cell-based screen for lethality selective to Ras in HRASV12 cells; BJeLR (HRASV12) viability, CellTiter-Glo ATP luminescence, 48 h; reference of the scale not given here; AID 1554, 2009; inhibition, % (no concentration beside the values); hit rate 0.17% among 300,000;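 active means replicate mean above 50%; inconclusive means above 50% but judged a plate artefact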;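 further: 50 nL library stock added to about 25 µL; numbers are from one replicate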
# Mtb hypoxia rep: PubChem AID 1159583 | M. tuberculosis hypoxia-regulated fluorescent reporter, fluorescence | fluorescence inhibition, % (no concentration beside the values) | hit rate 0.1% among 300,000;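 active means 35 to 45% if threefold the growth effect, above 45% if 1.5-fold the growth effect; inactive means the rest, general growth blockers included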;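 further: wells of about 50 µL received 100 nL stock; 0% = vehicle wells and 100% = reference inhibitor wells; whole bacteria with a GFP reporter of the hypoxia response; strong numbers were not always called active; many hits fall short of the cut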
# Autofluor counter: compound fluorescence in toxin protease inhibitor counterscreen | compound autofluorescence counterscreen, microsphere flow cytometry; hits give high values | fluorescence intensity (concentration not given with the values) | hit rate 3.1% among 360,000 | AID 624483;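 active means at least 3 SD above the mean of all compounds, about 16000 in these data; inconclusive means too few beads counted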;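 further: 100 nL of 1 mM stock went into each well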
# Mtb hypoxia rep growth: second read-out of Mtb hypoxia rep, no call of its own (marks repeat the call); growth inhibition, %; measured here: M. tuberculosis growth (absorbance);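 0% = vehicle and 100% = reference antibiotic; read after six days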
# The depositor's hits bear a star; ? = inconclusive; / = not tested or not shown.
SMILES,Sa ugtP lethal,Sa RN4220 lethal,PrP UTR inh,BJeLR lethal,Mtb hypoxia rep,Mtb hypoxia rep growth,Autofluor counter
CCOc1ccccc1N1CC(C(=O)Nc2nccs2)CC1=O (configuration not stated),1,-12,-12,6,18,9,3391
Cc1ccc(C)c(-n2c(SCC(=O)NCC3CCCO3)nnc2-c2ccoc2C)c1 (configuration not stated),1,5.2,-6,-19,13,8,3993
FC(F)Sc1nnc(-c2cccs2)n1-c1ccccc1,1,2.5,-17,8,13,5,19168*
Cc1cc(NC(=O)CSc2nc3ccccc3c(=O)n2C(C)c2ccccc2)no1 (configuration not stated),-3,-8.7,-18,14,16,7,3015
Cn1c(=O)[nH]c(=O)c2c1nc(CN1CCN(c3cccc(Cl)c3)CC1)n2CCCc1ccccc1,7,5.9,-8,-3,0,1,5898
O=C(NN=Cc1ccc([N+](=O)[O-])o1)C1COc2ccccc2O1 (configuration not stated),38,24,/,/,/,/,/
COc1cccc(N2CCN(C(=O)CC(C)(C)CC3=NS(=O)(=O)c4ccccc4N3)CC2)c1,-3,-1.4,-14,-5,-2,5,5722
COc1ccc(N2CCN(C(=O)c3sc4ncn(CC(=O)N5CCCCC5)c(=O)c4c3C)CC2)cc1,12,-1.6,-27,5,4,2,4912
CC(=O)N(C(C)=O)c1ncnc2c1c(-c1ccc(Cl)cc1)nn2C(C)(C)C,7,1.0,-11,9,3,-7,4187
Cn1c(Cc2ccccc2)nnc1SCC(=O)N1CCOCC1,-1,3.2,-26,0,9,9,9345
COc1ccc(-c2nc(-c3cccc(C)c3)[nH]c(=O)c2C#N)cc1,4,19,-26,-6,3,8,3824
COC(=O)C1=C(c2ccc(C(C)=O)cc2)C[C@@H]2CC[C@H]1N2C(=O)NC1Cc2ccccc2C1,-11,-19,-20,/,-5,-3,4182
O=C(O)Cc1sc(Nc2ccc(F)cc2)nc1-c1cccs1,-9,3.3,-58,2,4,12,3712
O=[N+]([O-])c1cccc(Cl)c1NCCNS(=O)(=O)c1ccc(Cl)cc1,-1,31,0,2,18,1,8378
CC(C)(C)c1cc(C(=O)N/N=C/c2ccc(-c3ccccc3[N+](=O)[O-])o2)n[nH]1,/,/,-23,-14,/,/,5074
CCn1cc(/C=C(\NC(=O)c2ccccc2F)C(=O)N2CCCC2)c2ccccc21,-15,1.2,-15,-5,3,1,5560
Cc1c(NC(=O)c2cccc(-c3cc4ccccc4oc3=O)c2)cccc1-c1nc2ncccc2o1,-17,9.5,-13,-7,-3,18,2108
Cc1ccc2nc(CSc3nnc(Nc4ccccc4C)s3)cc(=O)n2c1,-1,1.9,-3,-1,-1,3,2449
Cc1ccc(S(=O)(=O)N(C)c2ccc(C(=O)N(CC(C)C)C3CCS(=O)(=O)C3)cc2)cc1 (configuration not stated),-2,2.4,-19,5,6,0,?
Nn1cc(-c2ccccc2)nc1SCC(=O)N1CCN(S(=O)(=O)c2ccccc2)CC1,3,4.6,-14,-3,13,19,3925
COC(=O)C1=C(C)Nc2ccc(C)cc2S1,10,6.6,-8,12,/,/,6348
Cc1nn(C)c(C)c1NC(=O)CSc1nc(C2CC2)nc2c1cnn2-c1ccccc1,-5,0.9,-7,10,-2,2,4110
CCCn1c(N)c(C(=O)CSc2nnc(-c3ccco3)n2Cc2ccccc2)c(=O)[nH]c1=O,1,3.5,-22,5,9,12,3303
Cc1nc2sc(C(c3ccco3)N3CCN(C(c4ccccc4)c4ccccc4)CC3)c(O)n2n1 (configuration not stated),6,-14,-25,4,8,13,5951
Cc1ccc(C)c(NC(=O)CN(C)C(=O)c2ccc3c(=O)n4c(nc3c2)CCC4)c1,3,3.1,-19,/,3,0,3457
O=C(Nc1ccc2c(c1)OCCO2)c1ccc2nccnc2c1,6,2.1,-64,-3,9,8,7301
Cc1ccc(C)n1-c1ccc(NC(=O)c2ccccc2)cc1,9,2.4,-24,1,2,-1,6932
CCOC(=O)c1c(/N=C/C2C(=O)CCCC2=O)sc2c1CCCC2,/,/,-22,1,/,/,3615
CC(OC(=O)Cn1[nH]c(=O)c2ccccc2c1=O)C(=O)Nc1cccc(Cl)c1 (configuration not stated),2,1.8,7,-4,-5,-3,5212
CCc1ccc(-n2nc3cc(C)c(N)cc3n2)cc1,8,-9.0,9,5,-1,-3,3539
CCC(=O)Nc1ccc(S(=O)(=O)Nc2c(C)nc3nc[nH]n3c2=O)cc1,3,6.2,-21,2,8,-1,3797
O=c1nc2c(-c3cccc(Br)c3)n[nH]n2c2ccccc12,/,/,-41,-1,/,/,3573
CCOC(=O)C(O)(c1ccc(NC(=O)c2ccco2)c(OC)c1)C(F)(F)F (configuration not stated),9,3.8,-15,6,/,/,4380
Cc1ccccc1OCCn1c(=O)oc2ccccc21,3,13,-6,-2,13,7,3195
COc1ccc(Cl)cc1NC(=O)CN(C)C(=O)c1ccc(COc2ccccc2)cc1,-1,3.3,-20,5,-3,-2,4637
CC(=NO)c1oc2ccc3c(C)cc(=O)oc3c2c1C,-1,7.3,/,/,-13,10,/
O=C(NCCc1nnc2ccc(NCc3ccccc3Cl)nn12)c1ccccc1,1,1.7,-16,3,6,4,4858
C=CCN1C(=O)C(Cc2ccc(F)cc2)S/C1=N/N=C/c1cccs1 (configuration not stated),/,/,-22,-4,/,/,2797
COC(=O)c1cn(NC(=O)Cn2nc([N+](=O)[O-])c(Cl)c2C)c(=O)c2ccccc12,-6,-4.1,1,/,-8,0,5213
Cc1ccnc(SCC(=O)c2cccc([N+](=O)[O-])c2)n1,6,8.6,-17,-3,6,8,2127
COC(=O)C1=C(C)N(Cc2ccccc2)C(=O)NC1c1ccccc1 (configuration not stated),-17,-3.8,/,/,2,8,/
O=C(O)CSCC(=O)NCc1ccc(Cl)cc1Cl,0,1.0,-4,9,1,4,2439
COc1ccc2cc(C(=O)N3CCN(c4cccc(C)c4C)CC3)[nH]c2c1,6,2.6,-19,-1,2,-6,3635
COc1ccnc(Oc2ccccc2)c1C(=O)N/C=N/OCc1ccccc1F,1,1.1,-39,4,-5,-4,4487
CCNC(=O)OCCC12CC3CC(CC(C3)C1)C2,8,5.7,-12,/,21,14,2004
CN(Cc1ccccc1)Cc1nc2c(c(=O)n(C)c(=O)n2C)n1CCCc1ccccc1,59,6.1,-2,10,7,4,13280
CC(O)CSc1nc2c(c(=O)[nH]c(=O)n2C)n1Cc1ccccc1 (configuration not stated),1,1.5,15,2,-13,5,3689
COC(=O)c1cccc(C23CC4(C2)[C@H](CN(Cc2ccc(C(F)(F)F)cc2)[C@@H]4c2ccccc2)C3c2ccccc2)c1 (some centres not stated),/,/,-7,-1,/,/,4704
Cn1c(SCc2nc3ccccc3[nH]2)nnc1-c1ccccn1,-3,2.0,-25,4,-3,-1,3677
CCN(CC)C(=O)CSc1nc2cc(OC)c(OC)cc2c(=O)n1Cc1ccc(Cl)cc1,-12,6.4,-14,-8,11,7,8510
O=C1C2(c3ccccc3)CN(CCCO)CC1(c1ccccc1)CN(CCCO)C2,11,2.1,-16,1,12,-1,10567
CCOc1ccccc1NC(=O)c1ccc(S(=O)(=O)N(C)c2ccccc2)cc1,4,5.3,-13,/,17,10,3483
CCCCN1C(=O)/C(=c2\sc3nc(=O)c(-c4ccccc4)nn3c2=O)c2ccccc21,/,/,-16,-4,/,/,2733
Cc1ccc(SCC2CNc3nc4ccccc4c(=O)n32)c(C)c1 (configuration not stated),-3,2.3,-20,1,/,/,4267
CCN(CC(=O)NCc1cccs1)S(=O)(=O)c1cccc(C(C)=O)c1,1,3.1,-6,-7,4,3,4454
Cc1ccccc1C(=O)Nc1ccnn1C1CCN(C(=O)C2CCOC2)CC1 (configuration not stated),2,5.1,-16,-7,0,2,5618
COc1ccc(-c2c(S(=O)(=O)c3ccccc3)cnn2-c2ccccc2)cc1,-6,1.6,-10,4,-3,11,21873*
CCN(CCn1cccn1)C(=O)c1cc(COc2ccc(F)c(F)c2)on1,2,3.6,-52,2,4,2,5414
O=C(NNC(=O)c1ccc([N+](=O)[O-])cc1)c1ccc(NS(=O)(=O)c2cccs2)cc1,3,5.8,-19,/,9,17,3706
COc1cc(C2C(C(C)=O)=C(O)C(=O)N2CCN(C)C)ccc1O (configuration not stated),1,1.9,-13,-3,5,4,2890

# Copied from the listing, 16 compounds:
SMILES,Sa ugtP lethal,Sa RN4220 lethal,PrP UTR inh,BJeLR lethal,Mtb hypoxia rep,Mtb hypoxia rep growth,Autofluor counter
COc1ccc2cc(C(=O)N3CCN(c4cccc(C)c4C)CC3)[nH]c2c1,6,2.6,-19,-1,2,-6,3635
COc1ccnc(Oc2ccccc2)c1C(=O)N/C=N/OCc1ccccc1F,1,1.1,-39,4,-5,-4,4487
CCNC(=O)OCCC12CC3CC(CC(C3)C1)C2,8,5.7,-12,/,21,14,2004
CN(Cc1ccccc1)Cc1nc2c(c(=O)n(C)c(=O)n2C)n1CCCc1ccccc1,59,6.1,-2,10,7,4,13280
CC(O)CSc1nc2c(c(=O)[nH]c(=O)n2C)n1Cc1ccccc1 (configuration not stated),1,1.5,15,2,-13,5,3689
COC(=O)c1cccc(C23CC4(C2)[C@H](CN(Cc2ccc(C(F)(F)F)cc2)[C@@H]4c2ccccc2)C3c2ccccc2)c1 (some centres not stated),/,/,-7,-1,/,/,4704
Cn1c(SCc2nc3ccccc3[nH]2)nnc1-c1ccccn1,-3,2.0,-25,4,-3,-1,3677
CCN(CC)C(=O)CSc1nc2cc(OC)c(OC)cc2c(=O)n1Cc1ccc(Cl)cc1,-12,6.4,-14,-8,11,7,8510
O=C1C2(c3ccccc3)CN(CCCO)CC1(c1ccccc1)CN(CCCO)C2,11,2.1,-16,1,12,-1,10567
CCOc1ccccc1NC(=O)c1ccc(S(=O)(=O)N(C)c2ccccc2)cc1,4,5.3,-13,/,17,10,3483
CCCCN1C(=O)/C(=c2\sc3nc(=O)c(-c4ccccc4)nn3c2=O)c2ccccc21,/,/,-16,-4,/,/,2733
Cc1ccc(SCC2CNc3nc4ccccc4c(=O)n32)c(C)c1 (configuration not stated),-3,2.3,-20,1,/,/,4267
CCN(CC(=O)NCc1cccs1)S(=O)(=O)c1cccc(C(C)=O)c1,1,3.1,-6,-7,4,3,4454
Cc1ccccc1C(=O)Nc1ccnn1C1CCN(C(=O)C2CCOC2)CC1 (configuration not stated),2,5.1,-16,-7,0,2,5618
COc1ccc(-c2c(S(=O)(=O)c3ccccc3)cnn2-c2ccccc2)cc1,-6,1.6,-10,4,-3,11,21873*
CCN(CCn1cccn1)C(=O)c1cc(COc2ccc(F)c(F)c2)on1,2,3.6,-52,2,4,2,5414

# Further results.
SMILES,Sa ugtP lethal,Sa RN4220 lethal,PrP UTR inh,BJeLR lethal,Mtb hypoxia rep,Mtb hypoxia rep growth,Autofluor counter
Cc1cccc(OCC(=O)Nc2ccc(S(=O)(=O)Nc3ccccn3)cc2)c1,-3,6.3,-20,-4,12,7,4289
CC(C)(C)c1ccc(OC(=O)c2ccc3nsnc3c2)cc1,32,1.6,-33,-2,4,7,8240
Cc1cccc(N2C(=O)N3C(c4ccc(Br)cc4)C4C(=O)N(C(C)(C)C)C(=O)C4[C@]3(C)C2=O)c1 (some centres not stated),-2,8.9,/,/,-4,-11,/
Cn1c(SCC(=O)O)nc2sc3c(c2c1=O)CCC3,7,6.5,-12,4,4,-1,4185
CCN(CC)CCNC(=O)c1ccc(NC(=O)c2ccc(F)cc2)cc1,-1,1.7,-27,-2,1,-2,4325
CCOC(=O)CSc1cc(CS(=O)c2ccc(Cl)cc2)nc(-c2ccccc2)n1 (configuration not stated),-8,9.5,-9,-1,/,/,3749
O=C1N=c2ccccc2=C1c1sc(Nc2cccc(O)c2)nc1O,-5,16,-8,-7,5,7,3712
CCn1c(SCc2c(F)cccc2Cl)nnc1-c1ccco1,17,11,-14,2,13,8,8657
COC(=O)c1c(NC(=O)CSc2nccn2C)sc(C)c1C,-6,0.5,-6,3,-15,1,5785
CC1CCC(=NO)C(=NO)C1 (configuration not stated),3,3.7,-25,/,6,7,3378
CCOc1ccc(NC(=O)Nc2ccc(Br)cn2)cc1,4,1.8,-35,-4,-5,-6,2591
Cc1cc(=O)n(C)c2ccc(S(=O)(=O)N3CCOCC3)cc12,2,1.5,-2,-5,5,-3,4832
COc1ccc(OC)c(CNc2ccc([N+](=O)[O-])cc2C)c1,1,1.6,7,7,1,9,2958
